Screening data: PubChem BioAssay, Broad Institute
AF4-AF9 inh = inhibitors of AF4 peptide binding to AF9, primary screen, biochemical, AlphaScreen, biotin-AF4 peptide, FLAG-AF9, single point | inhibition, % at 10 µM | 350,000 compounds, 0.47% hits | AID 651704, 2012;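 active = every replicate reaching a set inhibition limit, whatever the replicate mean, cut at about 25% in these data; inconclusive = mean inhibition reaches that limit but some replicates miss it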;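 note: 0% = plate neutral control median and 100% = total signal loss; the record names both 10 and 1 µM as test concentration; the first replicate is given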
Target sequence (P42568 whole entry, looked up): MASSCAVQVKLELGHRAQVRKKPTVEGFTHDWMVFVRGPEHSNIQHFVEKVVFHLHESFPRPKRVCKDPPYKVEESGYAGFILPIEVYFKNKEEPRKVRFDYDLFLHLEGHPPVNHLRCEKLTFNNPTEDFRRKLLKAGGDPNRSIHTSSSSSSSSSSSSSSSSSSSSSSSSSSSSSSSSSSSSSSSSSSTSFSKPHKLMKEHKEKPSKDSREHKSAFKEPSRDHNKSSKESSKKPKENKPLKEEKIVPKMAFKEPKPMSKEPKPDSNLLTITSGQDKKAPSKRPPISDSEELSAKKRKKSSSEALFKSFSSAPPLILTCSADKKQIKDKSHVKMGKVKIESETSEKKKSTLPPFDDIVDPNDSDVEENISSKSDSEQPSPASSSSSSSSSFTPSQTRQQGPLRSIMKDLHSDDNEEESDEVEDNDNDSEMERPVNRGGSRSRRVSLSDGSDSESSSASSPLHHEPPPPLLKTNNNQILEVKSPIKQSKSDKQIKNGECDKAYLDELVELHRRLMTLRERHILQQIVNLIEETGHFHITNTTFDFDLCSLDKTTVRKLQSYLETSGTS
Ecoli rRNA inh = reduced GFP signal of wild-type E. coli, primary screen, bacterial rRNA inhibitor project, GFP/RFP fluorescence, OD600, single point. E. coli WT GFP vs humanized-ribosome RFP mutants, 24 h; active compounds read low; DMSO median 0, no signal -100. GFP signal change (wild-type ribosome), % (concentration not given with the values). 350,000 compounds, 1.6% hits;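 active = significant combined selectivity score with lowered wild-type GFP, culture density cut under 30%, mutant RFP and density less affected; inactive = any of these conditions unmet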; note: one replicate is shown; some compounds called inactive have numbers as strong as hits
FGF22 binding = binders of human FGF22 protein, primary screen, FGF22 synaptogenesis inhibitor project, biophysical, thermal shift, single point | calls only at 9.99 µM | AID 651658, 2012 | 340,000 compounds, 1.5% hits | Fibroblast growth factor 22 (Homo sapiens), Q9HCT0 | recombinant FGF22 thermal shift, SYPRO orange fluorescence; percent of sucrose octasulfate shift, DMSO zero;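 active = melting point raised past a set limit in the mean and every replicate; inconclusive = no clear call; three in four hits are not shown here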
Target sequence (Q9HCT0 whole entry, looked up): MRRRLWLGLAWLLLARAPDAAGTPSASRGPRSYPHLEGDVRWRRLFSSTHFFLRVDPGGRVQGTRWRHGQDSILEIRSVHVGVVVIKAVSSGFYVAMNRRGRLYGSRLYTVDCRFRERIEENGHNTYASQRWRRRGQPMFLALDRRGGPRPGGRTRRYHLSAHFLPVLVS
Beta cell apopt = inhibitors of cytokine-induced beta cell apoptosis, primary screen, luminescence; INS-1E cytokine-induced death, ATP luminescence, 48 h; percent of positive-control rescue, neutral wells zero; protection from apoptosis, % (concentration not given with the values); 300,000 compounds, 0.8% hits;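 active = all replicates at 75% or more, or half of them and the mean; inconclusive = half reach 75% but not the mean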;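 note: 0% = cytokine-treated negative control wells and 100% = positive control rescue; higher means more ATP so stronger rescue from cytokine killing; wells of about 40 µL received 100 nL stock; the first replicate is given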
ALR inh = inhibitors of human ALR sulfhydryl oxidase, primary screen, biochemical, H2O2 detection, HRP-luminol luminescence, single point; FAD-linked sulfhydryl oxidase ALR (Homo sapiens), P55789; purified ALR, DTT oxidation; inhibition, % (no concentration beside the values); 290,000 compounds, 3.8% hits; AID 485317, 2010;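 active = mean and each replicate at 75% or more; inconclusive = only one of the two met; inactive = neither met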;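 note: stock transfer was 7.5 nL into about 7.5 µL; 0% = neutral wells and 100% = wells with inactivated enzyme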
Target sequence (P55789 whole entry, looked up): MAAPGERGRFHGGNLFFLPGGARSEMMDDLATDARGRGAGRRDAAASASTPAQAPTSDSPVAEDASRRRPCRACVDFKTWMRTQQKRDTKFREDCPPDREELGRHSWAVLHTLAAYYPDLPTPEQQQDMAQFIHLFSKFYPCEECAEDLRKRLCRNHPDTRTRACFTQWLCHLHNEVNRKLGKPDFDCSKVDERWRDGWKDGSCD
T cruzi repl = inhibitors of intracellular T. cruzi growth, primary screen, luminescence, NIH3T3 host cells | T. cruzi beta-gal in NIH3T3, 90 h | inhibition, % (concentration not given with the values) | 300,000 compounds, 1.4% hits | AID 1885, 2009;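 active = mean inhibition across valid replicates above about 55%, limit read from the data; inconclusive = mean below that limit but half or more replicates reach it; inactive = mean below it, under half of replicates reach it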;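 note: signal also drops with host cell toxicity which is not excluded here; 0% = plate median of DMSO wells and 100% = zero luminescence signal; higher percent means less beta-gal luminescence so fewer parasites; stock transfer was 50 nL into about 50 µL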
RanGTP-Impb inh = inhibitors of RanGTP-importin-beta interaction, primary screen, biochemical, FRET, CFP-Ran, YFP-importin-beta, homogeneous | Ran GTPase (GTP-bound) - importin-beta complex | cell-free CFP-Ran/YFP-importin-beta FRET ratio | inhibition, % (no concentration beside the values) | 300,000 compounds, 1.1% hits | AID 2216, 2009;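 active = most replicates above 15%; inconclusive = exactly half above 15%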;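 note: 0% = DMSO wells and 100% = Ran loaded with GDP instead of GTP; wells of about 40 µL received 100 nL stock; the first replicate is given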
Calb FLC = C. albicans growth inhibition with fluconazole, primary screen, CaCi-2 strain, Alamar Blue fluorescence | growth inhibition, % (concentration not given with the values) | 300,000 compounds, 0.57% hits | C. albicans CaCi-2 (fluconazole-resistant clinical isolate) + fluconazole, 48 h | AID 1979, 2009;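 active = most replicates above 75%; inconclusive = exactly half above 75%; inactive = most below 75%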;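 note: all wells also contain fluconazole at 8 µg/ml as a sub-toxic cotreatment; 0% = median of DMSO wells and 100% = median of geldanamycin control wells; wells of about 8 µL received 7.5 nL stock; the first replicate is given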
Ecoli rRNA inh OD600 = also measured in Ecoli rRNA inh; calls as there; OD600 change, %; measured here: OD600 growth;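 optical density of the mix in the first replicate; 0 = DMSO median and -100 = no signal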
Ecoli rRNA inh RFP = further read-out of Ecoli rRNA inh, marked with its call; RFP signal change, %; measured here: RFP humanized mutant strains;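 first replicate; 0 = DMSO median and -100 = no signal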
The depositor's hits bear a star. A portion of the library, so the mix of outcomes need not match the whole.

Screening COc1ccccc1NS(=O)(=O)c1cccc(NC(=O)c2[nH]c(C)c(C(C)=O)c2C)c1 returned AF4-AF9 inh 11, Ecoli rRNA inh -16, FGF22 binding inactive, Beta cell apopt 76*, T cruzi repl 28, RanGTP-Impb inh 3.4, Calb FLC 13, Ecoli rRNA inh OD600 -18 and Ecoli rRNA inh RFP 0.3.
For CCN(CC)C(=O)Cn1cc(S(=O)(=O)CC(=O)NCc2ccc(F)cc2)c2ccccc21 the results were AF4-AF9 inh -1.3, FGF22 binding inactive, ALR inh -22, T cruzi repl -17, RanGTP-Impb inh -4.1 and Calb FLC -8.
Screening COc1ccc(CNC(=O)C2CCN(C(=O)c3ccc(F)cc3)CC2)cc1OC returned AF4-AF9 inh 1.0, Ecoli rRNA inh 9, FGF22 binding inactive, Beta cell apopt 3, ALR inh -2, Ecoli rRNA inh OD600 13 and Ecoli rRNA inh RFP 0.9.
Screening CCCCCCC(O)(c1ccccc1)C(CN1CCOCC1)c1ccccc1 (stereo not drawn) returned AF4-AF9 inh 1.7, Ecoli rRNA inh -12, FGF22 binding inactive, Beta cell apopt -7, ALR inh -4, T cruzi repl 3, RanGTP-Impb inh -1.1, Calb FLC 5, Ecoli rRNA inh OD600 -25 and Ecoli rRNA inh RFP 3.5.
Cn1c(NC(=O)c2ccc(Cl)cc2)c(-c2ccccn2)c(=O)c2ccccc21 was read as Beta cell apopt -5, ALR inh -2, T cruzi repl -11, RanGTP-Impb inh 6.0 and Calb FLC -5.
`COc1ccc2c(c1)c(=O)oc1cc3occ(C(C)(C)C)c3cc12` gave AF4-AF9 inh -3.2, Beta cell apopt 7, ALR inh -16, T cruzi repl 1, RanGTP-Impb inh 1.9 and Calb FLC -12.
CCn1c(Cc2cccn2C)nnc1SCC(=O)c1ccc(C)cc1 was read as Beta cell apopt -2, ALR inh 74, T cruzi repl 40, RanGTP-Impb inh -2.2 and Calb FLC -7.
`COc1ccccc1Nc1c([N+](=O)[O-])cc(C)cc1[N+](=O)[O-]` gave AF4-AF9 inh 13, Ecoli rRNA inh 3, FGF22 binding inactive, Beta cell apopt 7, ALR inh -1, T cruzi repl 12, RanGTP-Impb inh -2.2, Calb FLC 1, Ecoli rRNA inh OD600 4 and Ecoli rRNA inh RFP 1.0.
Screening CCC[N+](CC#Cc1ccccc1)(CCC)CC(=O)OC returned Beta cell apopt -3, ALR inh -7, T cruzi repl -15, RanGTP-Impb inh -3.8 and Calb FLC -6.
Screening COCCn1c(=O)[nH]c(=O)c2cc(C(=O)c3cc(Cl)ccc3O)cnc21 returned Beta cell apopt 3, T cruzi repl -5, RanGTP-Impb inh -3.4 and Calb FLC 89*.
Screening Cc1ccc(CN(C)C(=O)COC(=O)CSc2ccc(C(N)=O)cc2[N+](=O)[O-])cc1 returned AF4-AF9 inh -2.4, Ecoli rRNA inh -13, FGF22 binding inactive, Beta cell apopt -6, ALR inh 1, T cruzi repl 2, RanGTP-Impb inh 1.6, Ecoli rRNA inh OD600 -5 and Ecoli rRNA inh RFP -0.4.
For COc1ccc(CC(=O)Nc2cccc(/C(C)=N/NC(=O)c3cccc([N+](=O)[O-])c3)c2)cc1 the results were Beta cell apopt -5, ALR inh 3, T cruzi repl -3, RanGTP-Impb inh 5.7 and Calb FLC 9.
For CC(C)(C)NC(=O)NC(=O)COC(=O)Cc1c(Cl)cccc1Cl the results were AF4-AF9 inh 0.8, Ecoli rRNA inh -15, FGF22 binding inactive, Beta cell apopt -8, ALR inh -26, T cruzi repl -12, RanGTP-Impb inh 3.8, Calb FLC -6, Ecoli rRNA inh OD600 -7 and Ecoli rRNA inh RFP 2.4.
For CC(=O)N1CCN(C(=S)NC(=O)c2ccc(F)cc2)CC1 the results were AF4-AF9 inh -4.3, Ecoli rRNA inh 1, FGF22 binding inactive, Beta cell apopt 0, ALR inh 6, Ecoli rRNA inh OD600 6 and Ecoli rRNA inh RFP -2.1.
`CNC(C)C#Cc1ccc2sc3cccc(OC)c3c(=O)c2c1` (stereo not drawn) gave AF4-AF9 inh -1.9, Ecoli rRNA inh -20, FGF22 binding inactive, Beta cell apopt 1, T cruzi repl 26, RanGTP-Impb inh 38*, Calb FLC -26, Ecoli rRNA inh OD600 -16 and Ecoli rRNA inh RFP 8.2.
For CC(Oc1ccc(Br)cc1)C(=O)Nc1cc(Cl)ccc1N1CCN(C)CC1 (stereo not drawn) the results were AF4-AF9 inh -40, Ecoli rRNA inh -32, FGF22 binding inactive, Beta cell apopt -1, ALR inh -8, T cruzi repl 18, RanGTP-Impb inh -2.9, Calb FLC 8, Ecoli rRNA inh OD600 -68 and Ecoli rRNA inh RFP 0.1.
Screening COCCCN(C)C1CCN(C(=O)Nc2ccc(F)cc2)CC1 returned AF4-AF9 inh -5.4, Ecoli rRNA inh 1, FGF22 binding inactive, Beta cell apopt 2, ALR inh -3, T cruzi repl 24, RanGTP-Impb inh 2.9, Calb FLC 13, Ecoli rRNA inh OD600 4 and Ecoli rRNA inh RFP -4.9.
For O=C(NCCCn1ccnc1)/C(=C\c1ccccc1Cl)NC(=O)c1ccccc1 the results were AF4-AF9 inh -1.1, Ecoli rRNA inh 21, FGF22 binding inactive, Beta cell apopt 2, ALR inh -6, T cruzi repl 1, RanGTP-Impb inh 2.5, Calb FLC -5, Ecoli rRNA inh OD600 20 and Ecoli rRNA inh RFP 3.0.
Screening Cc1c(CCC(=O)O)c(=O)oc2c(C)c(OCc3ccccc3Cl)ccc12 returned AF4-AF9 inh -5.6, Ecoli rRNA inh -5, FGF22 binding inactive, Beta cell apopt -1, ALR inh -6, T cruzi repl 1, RanGTP-Impb inh -0.3, Calb FLC 16, Ecoli rRNA inh OD600 4 and Ecoli rRNA inh RFP -3.1.
`O=C(Nc1cc([N+](=O)[O-])ccc1F)c1ccc2c(c1)OCCO2` gave AF4-AF9 inh -2.0, Ecoli rRNA inh 2, FGF22 binding inactive, Beta cell apopt 4, ALR inh -1, T cruzi repl 7, RanGTP-Impb inh 5.7, Calb FLC inconclusive, Ecoli rRNA inh OD600 9 and Ecoli rRNA inh RFP 1.5.
Cc1ccc(C)c(NC(=O)CN(C)C(=O)c2cccc(-n3cccc3)c2)c1 was read as AF4-AF9 inh 0.3, Ecoli rRNA inh -2, Beta cell apopt -12, ALR inh -24, T cruzi repl -10, RanGTP-Impb inh 1.3, Calb FLC 13, Ecoli rRNA inh OD600 -9 and Ecoli rRNA inh RFP 4.5.
Cc1cc(NC(=O)CCCn2nc([N+](=O)[O-])c(Br)c2C)no1 was read as AF4-AF9 inh -23, Ecoli rRNA inh 4, FGF22 binding inactive, Beta cell apopt -1, T cruzi repl -1, RanGTP-Impb inh -0.9, Calb FLC 13, Ecoli rRNA inh OD600 8 and Ecoli rRNA inh RFP 2.7.
Screening COc1cccc(C(c2nnnn2Cc2ccco2)N2CCN(c3cccc(C)c3C)CC2)c1OC (stereo not drawn) returned Beta cell apopt 6, ALR inh -4, T cruzi repl 52, RanGTP-Impb inh -2.1 and Calb FLC 2.
Clc1ccc(CN2CCc3c([nH]c4ccccc34)C2)cc1Cl was read as AF4-AF9 inh 6.2, Ecoli rRNA inh -57, FGF22 binding inactive, Beta cell apopt 10, ALR inh 3, T cruzi repl 38, RanGTP-Impb inh 5.4, Calb FLC 15, Ecoli rRNA inh OD600 -79 and Ecoli rRNA inh RFP -18.
`CC(NC(=O)c1ccnc(C(C)(C)C)c1)c1ccccc1` (stereo not drawn) gave Beta cell apopt -3, ALR inh 2, T cruzi repl -10 and Calb FLC -17.
Screening COc1cc(-c2ccc3oc(-c4ccsc4)cc3c2)cc(OC)c1OC returned AF4-AF9 inh -2.1, Ecoli rRNA inh 0, FGF22 binding inactive, ALR inh -3, T cruzi repl 3, RanGTP-Impb inh 0.2, Calb FLC -2, Ecoli rRNA inh OD600 1 and Ecoli rRNA inh RFP -7.1.
N#Cc1c(-c2cccs2)cc(-c2cccs2)[nH]c1=O was read as AF4-AF9 inh -0.5, Ecoli rRNA inh -1, FGF22 binding inactive, Beta cell apopt 1, ALR inh -8, T cruzi repl -8, RanGTP-Impb inh 45*, Calb FLC 8, Ecoli rRNA inh OD600 -10 and Ecoli rRNA inh RFP -0.2.
`COc1cccc(C2=NOC(C(=O)Nc3cccnc3Cl)C2)c1OC` (stereo not drawn) gave AF4-AF9 inh -3.1, Ecoli rRNA inh 2, Beta cell apopt 1, ALR inh -6, T cruzi repl -3, RanGTP-Impb inh 3.2, Calb FLC inconclusive, Ecoli rRNA inh OD600 0 and Ecoli rRNA inh RFP 1.5.
For Cc1cc(Nc2cccc([N+](=O)[O-])c2)c2ccccc2n1 the results were AF4-AF9 inh 0.2, Ecoli rRNA inh 19, FGF22 binding inactive, Beta cell apopt 25, ALR inh -7, T cruzi repl 10, RanGTP-Impb inh -2.7, Calb FLC 6, Ecoli rRNA inh OD600 8 and Ecoli rRNA inh RFP 2.1.
`COc1ccc(NC(=O)Nc2ccc3c(c2)C(=O)N([C@H](C)CO)C[C@H](C)[C@@H](CN(C)C(=O)Nc2c(C)noc2C)O3)cc1` gave AF4-AF9 inh 0.4, Ecoli rRNA inh 2, FGF22 binding inactive, Beta cell apopt 2, ALR inh -16, Ecoli rRNA inh OD600 4 and Ecoli rRNA inh RFP 0.5.
`Cc1cn(S(=O)(=O)c2cc(Br)ccc2Br)cn1` gave Beta cell apopt -3, ALR inh -5, T cruzi repl -1, RanGTP-Impb inh 0.2 and Calb FLC 10.
`COC(=O)C[C@H]1c2cc(F)ccc2S(=O)(=O)N1C(C)C` gave AF4-AF9 inh 1.2, Ecoli rRNA inh 18, FGF22 binding inactive, Beta cell apopt -1, ALR inh -1, T cruzi repl -7, RanGTP-Impb inh 1.0, Calb FLC 0, Ecoli rRNA inh OD600 11 and Ecoli rRNA inh RFP 2.2.

3 entries from above, arranged by formula weight, highest first.
Screening COc1cccc(C(c2nnnn2Cc2ccco2)N2CCN(c3cccc(C)c3C)CC2)c1OC (stereo not drawn) returned Beta cell apopt 6, ALR inh -4, T cruzi repl 52, RanGTP-Impb inh -2.1 and Calb FLC 2.
Clc1ccc(CN2CCc3c([nH]c4ccccc34)C2)cc1Cl was read as AF4-AF9 inh 6.2, Ecoli rRNA inh -57, FGF22 binding inactive, Beta cell apopt 10, ALR inh 3, T cruzi repl 38, RanGTP-Impb inh 5.4, Calb FLC 15, Ecoli rRNA inh OD600 -79 and Ecoli rRNA inh RFP -18.
`O=C(Nc1cc([N+](=O)[O-])ccc1F)c1ccc2c(c1)OCCO2` gave AF4-AF9 inh -2.0, Ecoli rRNA inh 2, FGF22 binding inactive, Beta cell apopt 4, ALR inh -1, T cruzi repl 7, RanGTP-Impb inh 5.7, Calb FLC inconclusive, Ecoli rRNA inh OD600 9 and Ecoli rRNA inh RFP 1.5.
